Screening results from PubChem BioAssay.
AID504770: growth inhibitors of E. coli YBA685 in a screen for V. cholerae RctB (chromosome II replication) inhibitors; E. coli YBA685 rctB-dependent plasmid, OD600 growth, 3 h; hits give low values; AID 504770; z-score (no concentration beside the values); 130,000 compounds, 0.27% hits;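 active = z-score under -2 on both plates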;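 also: wells of about 30 µL received 100 nL stock; score is relative to mean and SD of the test wells; the first replicate is given; strong numbers were not always called active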
CapD inh: CapD enzyme inhibition | purified CapD enzyme, fluorescence intensity read-out; hits give low values; some hits fall short of the stated cut | z-score (test concentration not listed) | 140,000 compounds, 0.23% hits | AID 492967;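 active = z-score under -4 in either of two replicates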;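 also: stock transfer was 100 nL into about 40 µL; score is relative to mean and spread of the plate; one replicate is shown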
Starred values were filed as active, the others as inactive; / = not tested or not shown. Not all compounds are listed; rates above refer to the full screens.

The first 2 compounds, ahead of the listing:
SMILES	AID504770	CapD inh
O=C(Nc1cccnc1)Nc1cccc(C(F)(F)F)c1	-1.2	/
CN1CCN(CCCNc2c(N)c(=O)oc3ccccc23)CC1	-0.25	/

Main list (from the top)
SMILES	AID504770	CapD inh
O=C(Nc1cccnc1)Nc1cccc(C(F)(F)F)c1	-1.2	/
CN1CCN(CCCNc2c(N)c(=O)oc3ccccc23)CC1	-0.25	/
CCOc1ccccc1C(=O)NC(C(=O)O)C(C)C (centres undefined)	-0.45	-0.56
CCN1CCN(CC(=O)Nc2sc3c(c2C(=O)OC)CCC(C)C3)CC1 (centres undefined)	-1.1	18
Cc1noc(C(F)(F)F)c1-c1nc(-c2ccccc2)no1	-1.4	-0.14
CCOC(=O)c1csc(CS(=O)(=O)Cc2ccc(F)cc2)n1	0.25	0.17
O/N=C/c1ccc(Cl)cc1	-0.9	/
CC(C)(C)c1nc(-c2ccc(C(F)(F)F)cn2)no1	-0.55	0.23
O=S(=O)(Cc1ccccc1)c1ccc(Cl)c(Cl)c1	0.15	-0.23
CCSc1nc(-c2ccc(OC)cc2)nc2c1c(=O)n(C)c(=O)n2C	-1.5	2.9
C=CCn1c(-c2ccc(OC)cc2)nc2ccccc21	1.6	0.76
O=C1c2ccccc2C(=O)N1O	0.25	-0.085
O=C(NCc1ccco1)/C(=C/c1ccc(F)cc1)NC(=O)c1ccccc1	/	0.015
Cn1c(C(Cc2ccccc2)NC(=O)c2cccs2)nc2ccccc21 (centres undefined)	-1	-0.14
Cc1ccc(Nc2nc3ccccc3n3c(N)nnc23)cc1C	2.2	-0.32
Cc1cccc2oc(-c3ccc(N=Cc4cc(C(=O)O)ccc4O)cc3)nc12	-0.15	60
COc1cccc(Nc2nc(-c3ccccc3)cs2)c1	0.3	-0.25
CC1CCCCN1C(=O)c1cc2c(=O)oc3ccccc3c2s1 (centres undefined)	-0.1	0.65
C(=N\C(/N=C/c1ccco1)c1ccco1)/c1ccco1	-0.55	41
Cc1cc(NC(=O)CN2C(=O)CC(c3ccco3)Sc3ccccc32)no1 (centres undefined)	-1	/
O=C(O)c1cccnc1C(=O)O	-0.25	-0.19
O=C(CSc1ccc(-c2ccccc2)nn1)N1CCCC1	0.2	/
O=[N+]([O-])c1cc(Cl)c(-n2cccc2)cc1Oc1ccc(Cl)cc1	/	-0.03
O=C(CSc1nc(NCc2ccccc2)c2ccccc2n1)NCc1ccco1	/	0.87
CC(C)(C)C1CCc2sc(-c3nnc(CN4CCN(C(=O)c5cccs5)CC4)o3)cc2C1 (centres undefined)	-0.85	/
CN(C)CCNc1ncnc2sc(-c3ccccc3)cc12	-1.1	/
Cc1ccc(SCC(=O)Nc2ccc(C)cc2C)cc1	-0.05	-0.04
Cc1ccc(C2(c3ccc(C)cc3)CC2C(=O)Nc2ccc(F)cc2)cc1 (centres undefined)	/	-0.13
CSc1ccc(C2N[C@@H](C(=O)O)C(C)(C)S2)cc1 (some centres undefined)	-0.5	0.37
Cc1cn2c(CO)c(C)nc2s1	-0.25	/
COC(=O)c1ccc(C2C(C#N)=C(C)NC(C)=C2C(=O)Nc2ccccc2)cc1 (centres undefined)	-0.25	/
CCN1C(=O)C2CC(C)=C(C)CC2C1=O (centres undefined)	-0.8	0.54
CC1=C(COc2c3occc3cc3ccc(=O)oc23)CC(C)(C)CC1	-0.3	0.21
O=c1[nH]c(CN2CCN(Cc3ccccc3)CC2)nc2ccccc12	0.4	/
CCS(=O)(=O)c1ccc(OC)c(N=NC2=C(O)CC(C)(C)CC2=O)c1	-0.1	0.11
c1ccc(COc2cccc(CNn3cnnc3)c2)cc1	0.45	-1.5
CN/C=C/C(=O)C(F)(F)F	0.7	/
COCCn1c(Cc2ccccc2)nnc1SCc1nnc(-c2ccccc2)o1	-0.1	/
O=C(O)/C=C/c1ccc(OC(F)(F)F)cc1	-0.8	/
Cc1c(Cl)cccc1-n1ncc(C(=O)O)c1C1CCN(C(=O)OC(C)(C)C)CC1	0.85	-0.42
Cc1ccc(N2C(=O)CC(C(=O)Nc3cccc(-n4cnnn4)c3)C2c2cccs2)cc1 (centres undefined)	-1.5	/
O=S(=O)(c1ccc2oc3ccc(S(=O)(=O)N4CCCC4)cc3c2c1)N1CCCC1	0.5	-0.48
NCCCOCc1ccccc1	-0.3	/
CCN(CC(=O)Nc1cc(Cl)ccc1C)CC(=O)NC1CC1	-1	/
CC(C)N(Cc1ccccc1)C(c1ccc(F)cc1)c1c(O)[nH]c(=O)[nH]c1=O (centres undefined)	-1	0.19

The final 3 entries of the section before lead into the next.
SMILES	AID504770	CapD inh
NCCCOCc1ccccc1	-0.3	/
CCN(CC(=O)Nc1cc(Cl)ccc1C)CC(=O)NC1CC1	-1	/
CC(C)N(Cc1ccccc1)C(c1ccc(F)cc1)c1c(O)[nH]c(=O)[nH]c1=O (centres undefined)	-1	0.19
CCNC(=S)N/N=C/c1cc(OC)c(OC)c(OC)c1	-0.1	-2.3
CN(c1ccccc1)c1cc(N2CCOCC2)c2nonc2c1[N+](=O)[O-]	/	-1.1
N=C(N=C(N)N)N1CCc2ccccc21	-0.85	/
O=c1[nH]nc(Cc2ccc(-c3ccc(Cl)cc3Cl)o2)c2ccccc12	/	0.21
Cc1ccc(S(=O)(=O)n2c(SCC(=O)NCCc3ccccc3)nc3ccccc32)cc1	/	-0.4
Cc1ccccc1-c1noc(-c2cc3cc(C(C)(C)C)cc(O)c3oc2=O)n1	0.45	-0.23
Cc1ccc(S(=O)(=O)N2CCC(C(=O)O)CC2)c(C)c1	-0.45	/
O=c1cc(N2CCN(S(=O)(=O)c3ccccc3)CC2)c(-c2ccccc2)n[nH]1	/	0.21
CC(=O)Nc1ccc2c(COC(=O)C3CC3C)cc(=O)oc2c1 (centres undefined)	0.3	/
CS(=O)(=O)c1ccc(Cl)c(Cl)c1	-0.9	-1.3
CNC(=O)c1cnc2sc(N3CCCC3)nn2c1=O	-0.7	36
CC(C)(C)C1(O)CC2OC(=O)CC23C(=O)OC2OC(=O)C(O)C231 (centres undefined)	2	-0.36
CN[C@@H]1C(OC2[C@H](O[C@H]3[C@H](O)[C@@H](O)[C@H](N=C(N)N)[C@@H](O)[C@@H]3N=C(N)N)OC(C)[C@]2(O)CO)OC(CO)C(O)C1O (some centres undefined)	0.3	0.05
CCCc1ccno1	1.1	/
COc1ccc(C2CC(=O)C3=C(C2)Nc2ccccc2NC3c2cc(Br)c(OC)c(OC)c2)cc1 (centres undefined)	/	-1

Brought forward from above: two compounds; new compounds follow.
SMILES	AID504770	CapD inh
CCCc1ccno1	1.1	/
COc1ccc(C2CC(=O)C3=C(C2)Nc2ccccc2NC3c2cc(Br)c(OC)c(OC)c2)cc1 (centres undefined)	/	-1
CC(C)c1ccc(NS(=O)(=O)Cc2ccccc2)cc1	0.35	0.37
COc1cccc(NC(=O)C2CC(=O)N(Cc3ccco3)C2)c1 (centres undefined)	-0.25	/
CCOc1cc(-c2ccc3c(c2)OCO3)cc(=O)c2c(C)oc(C)c12	-2	0.64
CC(=O)NCCSCc1cc2cccc3c2n(c1=O)CCC3	/	7.8
NNc1nc(-c2ccccc2)cc(-c2ccccc2)n1	0.7	0.26
CC(C)(C)C(=O)N1CCC(c2nc(-c3ccncc3)no2)CC1	/	-0.34
O=c1ccc(=O)n(CNc2nccs2)[nH]1	-0.2	0.03
COc1ccc(C2SC[C@H]3C(=O)N(c4ccccc4)C(=S)N23)cc1 (some centres undefined)	1.2	0.34
COC(=O)C1=C(c2ccccc2)S(=O)(=O)CCN1C(C)=O	-0.65	0.52
CCOC(=O)C1CCN(C2CC(=O)N(c3ccc(N4C(=O)CC(N5CCC(C(=O)OCC)CC5)C4=O)cc3)C2=O)CC1 (centres undefined)	-0.55	0.82
S=C(NCCc1ccccc1)N1CCC2(CC1)OCCO2	-0.35	-0.72
Cc1ccc(S(=O)(=O)CCC(=O)NCc2ccccc2)cc1	1	-0.64
Cc1ccc(/C=C/C(=O)N2CCN(C(=O)/C=C/c3ccc(C)o3)CC2)o1	1.4	0.15
O=C(Nc1ccc(Cl)cc1)N1CCC(N(C2CC2)S(=O)(=O)c2ccc(Cl)cc2)CC1	/	-0.54
COc1cccc(-n2cc(C(=O)NCc3cccnc3)c3ccccc3c2=O)c1	0.05	6.3
Cn1c(CO)nc2cc(Cl)ccc21	0.6	0.12
O=C1C2CC=CCC2C(=O)N1c1ccccc1 (centres undefined)	-2.1	0.64
O=C(CCSc1cccs1)Nc1cccc(C(F)(F)F)c1	1.2	-0.36
CC(=C1C(=O)c2ccccc2C1=O)N1CCN(c2ccccn2)CC1	-0.1	-2
CCCCSc1ncc(C(=O)OCC)c(N)n1	-0.2	/
O=S(=O)(Nc1ccc(O)c(Sc2ncn[nH]2)c1)c1ccccc1	0.1	-0.025
O=C(Cc1cccs1)NCC(c1ccco1)N1CCCCC1 (centres undefined)	-1.2	/
CC(C)OC(=O)c1c(F)c(F)c(F)c(F)c1F	-0.3	0.33
O=C(NCCN1CCNC1=O)c1ccc2nccnc2c1	-0.15	0.08
c1ccc2sc(NC3=NCN(CCN4CCOCC4)CN3)nc2c1	-0.3	1.2
NCCCSc1nc(C2CC2)n(-c2ccccc2)n1	-0.3	/
CCC(c1nnc(SCC(=O)Nc2cc(C)on2)o1)N(C)C (centres undefined)	-0.25	/
O=C(CSc1ncn[nH]1)Nc1ccc(N2CCOCC2)cc1	1	-1.2
O=C(NCC1CCNCC1)/C(=N/O)c1ccccc1	-0.6	6.5
CCc1ccccc1NC(=O)C1CCN(S(=O)(=O)c2cc(OC)ccc2OC)CC1	1.4	/
COc1ccc2sc(N(CCN(C)C)C(=O)Cc3ccccc3)nc2c1	-0.1	-0.21
CCOC(=O)C1=C(N)Oc2c(c(=O)oc3ccccc23)C1c1ccc(Cl)c(Cl)c1 (centres undefined)	/	2.6
COc1ccc(N(CC(O)CN(Cc2ccccc2)Cc2ccccc2)S(=O)(=O)c2ccccc2)cc1 (centres undefined)	/	-0.14
CC(=O)N1C(C)(C)CC(=NOC(=O)c2cccc(C(F)(F)F)c2)CC1(C)C	/	0.33
CCCc1cc(=O)[nH]c(SCC(=O)N2CCCC2=O)n1	-0.25	/
Cc1cc(C)n(N)c(=O)c1C#N	-0.25	/
CCOc1ccc(OCCCN2CCN(C)CC2)cc1	1.6	-0.08
OCC(O)C1OC(Nc2ccc(Br)cc2)C(O)C1O (centres undefined)	-0.7	0.045
COc1ccc(C(=O)Nc2ccc3oc(-c4ccccc4Br)nc3c2)cc1	/	5.9
Cc1ccc(-n2ncc3c(N4CCCCCC4)ncnc32)c(C)c1	/	-0.055
CCCN1c2ccccc2S(=O)(=O)c2ccccc21	-0.1	3.1
Cc1ccc2cc(CCNC(=O)c3ccc(F)c(F)c3)c(=O)[nH]c2c1C	2.6	0.11
COCCn1c(SC(C)C)nnc1-c1c[nH]c2ccccc12	-0.85	-0.95
N#CC1=C(N)C(C#N)(C#N)C(c2ccc(Cl)cc2Cl)C2CCCC=C12 (centres undefined)	/	0.98
CC(C)(C)NC(=O)C1CC(=O)OC12CCCCC2 (centres undefined)	-1	/
CNc1cc(C#N)c2cc(Br)ccc2n1	0.55	0.78
Cc1cc(C)c(S(C)(=O)=O)c(N(C)NC(=O)c2c(F)cccc2F)n1	/	-0.65
O=C(CNC(=O)c1ccco1)Nc1ccc(Br)cc1	-0.95	0.29
Cc1onc(-c2ccccc2Cl)c1C(=O)OC(c1ccccc1)C(F)(F)F (centres undefined)	0.3	-0.6
COc1ccc(NC(=O)N2CCN(Cc3ccccc3Cl)CC2)cc1	-0.9	-0.35
COc1ccccc1NC(=O)CN(Cc1ccco1)C(=O)Cn1nc(C(N)=O)c2ccccc2c1=O	-0.6	/
FC(F)(F)Oc1ccc(-c2nnc(-c3ccccc3Cl)o2)cc1	-0.4	1
CCOc1ccc(OCCOn2nnc3ccccc32)cc1	-0.85	/
N#CSc1cnc(NC2CCCCC2)s1	-0.4	/
CC(C)CN(CC(C)C)C(=O)COc1ccccc1C(N)=O	0.55	/
O=C(CSc1nc(NCCc2ccccc2)c2ccccc2n1)NCc1ccco1	/	-0.12
O=C(NCCN1CCOCC1)c1ccc2nc(-c3ccccc3)c(-c3ccccc3)nc2c1	/	6.1
CCCN(CCC)c1nc(SC)nc(-c2ccccc2)c1C#N	-1.2	0.32
Fc1ccc(-c2nnc(N3CCOCC3)c3ccccc23)cc1	1.9	-0.24
CCCNC(=O)Nc1cc(S(=O)(=O)CC)ccc1O	-0.9	0.68

Compound profiles, from the list above.
`CCCN(CCC)c1nc(SC)nc(-c2ccccc2)c1C#N` across the screens: AID504770 = -1.2; CapD inh = 0.32
`Cc1cc(C)c(S(C)(=O)=O)c(N(C)NC(=O)c2c(F)cccc2F)n1` across the screens: AID504770 = /; CapD inh = -0.65

(more compounds)
SMILES	AID504770	CapD inh
COc1ccc(CCNC(=S)NC(=O)c2ccc(Cl)cc2Cl)cc1OC	-0.4	0.18
O=c1c(Oc2ccc(F)cc2)coc2cc(O)cc(O)c12	0.6	-1
O=C(NCc1ccccc1Cl)c1ccccc1	-0.75	/
CCOC(=O)CNc1n[nH]c(=O)[nH]c1=O	-0.7	-0.72
CC1C=CCC2C(=O)N(c3ccc(OC(=O)c4ccco4)cc3)C(=O)C12 (centres undefined)	-0.7	/
Cc1nnc(NC(=O)CCCN2C(=O)/C(=C/c3cccs3)SC2=S)s1	-0.2	/
